Vaccinia stage: blocks a specific stage of Vaccinia orthopoxvirus infection; Vaccinia-infected cells, mCherry/Venus stage reporter fluorescence; hits give low values; some inactives read as strong as hits; hit rate 0.01% among 89,000; activity change (mCherry), % (test concentration not listed);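 active means mCherry past -33% and 40 or more points under the early reporter, replicates agreeing; inconclusive means past -33% without that gap or agreement; tested in A549 cells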;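 further: scaled between vehicle wells and reference inhibitor wells; 23 nL library stock went into each well; one replicate is shown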
Vaccinia stage Venus: recorded beside Vaccinia stage, whose call it bears; activity change (Venus), %; measured here: Venus reporter, other viral stage;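 negative = less Venus signal; first of two replicates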
* = called active by the depositor; ? = inconclusive; nt = not tested or not shown. A portion of the library, so the mix of outcomes need not match the whole.

Screens in order: Vaccinia stage, Vaccinia stage Venus
> CC(C)NC(=O)Nc1ccc2c(c1)C(=O)N([C@H](C)CO)C[C@@H](C)[C@@H](CN(C)C(=O)NC1CCCCC1)OCCCC[C@H](C)O2
  31, 8
> C[C@@H]1CN([C@@H](C)CO)C(=O)Cc2cc(NS(=O)(=O)c3ccc(Cl)cc3)ccc2O[C@H]1CN(C)Cc1ccncc1
  11, -1
> COc1ccc2c3c([nH]c2c1)[C@H](CO)N(Cc1ccc(Cl)cc1)CC31CCN(Cc2ccccc2)CC1
  -17, -21
> CCC(=O)N[C@@H]1CC[C@H](CCNS(=O)(=O)c2ccc(Cl)cc2)O[C@H]1CO
  2, 6
> C[C@@H]1CN([C@H](C)CO)C(=O)Cc2cc(NC(=O)CCN3CCOCC3)ccc2O[C@@H]1CN(C)Cc1ccc(C(F)(F)F)cc1
  -26, -20
> CCNC(=O)C[C@H]1CC[C@@H]2[C@@H](COc3ccc(NC(=O)Nc4ccccc4OC)cc3C(=O)N2C)O1
  5, 6
> C[C@@H]1CCCCO[C@@H](CN(C)S(=O)(=O)c2ccc(Cl)cc2)[C@H](C)CN([C@H](C)CO)C(=O)c2cc(NS(=O)(=O)c3cn(C)cn3)ccc2O1
  -31, -23
> CO[C@H]1CN(C)C(=O)c2ccc(NC(=O)C3CCC3)cc2OC[C@H](C)N(C)C[C@@H]1C
  16, 10
> O=C(C[C@@H]1CC[C@H]2[C@@H](COC[C@@H](O)CN2S(=O)(=O)c2ccc(F)cc2)O1)NCc1ccc(Cl)c(Cl)c1
  ?, nt
> C[C@H](CO)N1C[C@H](C)[C@@H](CN(C)CC2CC2)Oc2c(NC(=O)c3nc4ccccc4s3)cccc2C1=O
  -15, -10
> O=C(NCc1ccc(F)cc1)[C@H]1[C@H](CO)[C@H]2Cn3c(cccc3=O)[C@@H]1N2CC1CC1
  14, 1
> C[C@H]1CN([C@@H](C)CO)S(=O)(=O)c2ccc(-c3ccncc3)cc2O[C@H]1CN(C)Cc1cccnc1
  5, 3
> C[C@H]1CN([C@@H](C)CO)C(=O)c2cc(NC(=O)Nc3ccc4c(c3)OCO4)ccc2O[C@H]1CN(C)Cc1ccccc1
  -11, -6
> C[C@@H]1CN([C@H](C)CO)C(=O)c2ccccc2-c2ccccc2CO[C@@H]1CN(C)C(=O)c1ccccc1
  26, 12
> C[C@@H]1CN([C@@H](C)CO)S(=O)(=O)c2ccc(-c3ccccc3)cc2O[C@H]1CN(C)C(=O)Nc1ccccc1F
  -14, -23
> C[C@H]1CN([C@@H](C)CO)C(=O)c2cccc(N(C)C)c2O[C@@H]1CN(C)C(=O)Nc1ccccc1
  16, 10
> C[C@H]1CN([C@@H](C)CO)C(=O)c2cc(NC(=O)NC3CCCCC3)ccc2O[C@H]1CN(C)S(=O)(=O)c1ccccc1
  2, -6
> CO[C@@H]1CN(C)C(=O)c2ccc(NC(=O)C3CC3)cc2OC[C@H](C)N(Cc2ccncc2)C[C@H]1C
  12, 13
> CC(C)C(=O)Nc1ccc2c(c1)C(=O)N(C)[C@@H]1CC[C@@H](CC(=O)NC3CCCC3)O[C@H]1CO2
  4, 1
> N#Cc1ccc(-c2ccc3c(c2)[C@H]2[C@H](CCN2C(=O)CN2CCOCC2)[C@H](CO)N3)cc1
  -29, -11

Shown in CSV form: part of the list above.
SMILES,Vaccinia stage,Vaccinia stage Venus
O=C(C[C@@H]1CC[C@H]2[C@@H](COC[C@@H](O)CN2S(=O)(=O)c2ccc(F)cc2)O1)NCc1ccc(Cl)c(Cl)c1,?,nt
C[C@H](CO)N1C[C@H](C)[C@@H](CN(C)CC2CC2)Oc2c(NC(=O)c3nc4ccccc4s3)cccc2C1=O,-15,-10

The list continues.
Screens in order: Vaccinia stage, Vaccinia stage Venus
> CCC(=O)N1C[C@@H](C)[C@H](OC)CN(C)C(=O)c2cc(NC(=O)Nc3ccccc3)ccc2OC[C@H]1C
  0, 2
> COC(=O)C[C@@H]1CC[C@H](NC(=O)Nc2ccc(C(F)(F)F)cc2)[C@H](CO)O1
  4, 5
> C[C@H](CO)N1C[C@H](C)[C@H](CN(C)Cc2ccc3c(c2)OCO3)Oc2ccc(NC(=O)CCC(F)(F)F)cc2C1=O
  14, 8
> COc1ccc2c3c([nH]c2c1)[C@@H](CO)N(Cc1ccccc1F)CC31CN(C(=O)C2CCCC2)C1
  -5, 6
> C[C@H]1CN([C@@H](C)CO)C(=O)c2cccc(NC(=O)Nc3ccccc3)c2O[C@@H]1CN(C)C
  5, 1
> C[C@@H]1CN([C@H](C)CO)C(=O)c2cc(NC(=O)Nc3ccc(C(F)(F)F)cc3)ccc2O[C@H]1CN(C)S(=O)(=O)c1ccc(Cl)cc1
  -15, -17
> CN(C)C(=O)c1cccc(-c2ccc([C@H]3[C@@H](CO)N4CCCCN(S(C)(=O)=O)C[C@@H]34)cc2)c1
  14, 18
> CCCC(=O)Nc1ccc2c(c1)C(=O)N(C)C[C@H](OC)[C@H](C)CN(C)[C@H](C)CO2
  3, 7
> C[C@@H]1CCCCO[C@H](CN(C)C(=O)Nc2cccc3ccccc23)[C@H](C)CN([C@@H](C)CO)C(=O)c2cc(N(C)C)ccc2O1
  ?, nt
> COc1cccc(-c2ccc3c(c2)[C@H]2[C@H](CCN2S(=O)(=O)c2ccccc2OC)[C@@H](CO)N3)c1
  -2, 0
> CO[C@@H]1CN(C)C(=O)c2cc(NS(=O)(=O)c3cccc(F)c3)ccc2OC[C@H](C)N(Cc2cc(F)ccc2F)C[C@H]1C
  ?, nt
> C[C@@H]1CCCCO[C@@H](CN(C)C(=O)Nc2ccc(C(F)(F)F)cc2)[C@H](C)CN([C@@H](C)CO)C(=O)c2cc(NC(=O)Nc3ccccc3)ccc2O1
  -15, -11
> C[C@@H]1CN([C@@H](C)CO)C(=O)Cc2cc(NS(=O)(=O)c3ccccc3)ccc2O[C@H]1CN(C)Cc1ccc2c(c1)OCO2
  ?, nt
> CCCNC(=O)NC[C@H]1[C@@H](c2ccc(C3=CCCCC3)cc2)[C@@H](CO)N1C(C)=O
  -18, -15
> CCC(=O)N1CC[C@@H]2[C@H](CO)Nc3ccc(C#Cc4ccc(OC)cc4)cc3[C@@H]21
  25, 8
> CC(C)CC#Cc1ccc2c(c1)O[C@H](CN(C)C(=O)CC1CC1)[C@H](C)CN([C@@H](C)CO)S2(=O)=O
  ?, nt
> C[C@@H]1CN([C@@H](C)CO)C(=O)c2cc(/C=C/c3ccccc3)cnc2O[C@@H]1CN(C)C(=O)c1ccc2c(c1)OCO2
  ?, nt
> C[C@@H]1CN([C@H](C)CO)S(=O)(=O)c2ccc(C#Cc3ccccc3)cc2O[C@@H]1CN(C)CC1CC1
  -12, -18
> COc1ccc(NC(=O)N(C)C[C@@H]2Oc3c(NC(=O)c4nc5ccccc5s4)cccc3C(=O)N([C@H](C)CO)C[C@@H]2C)cc1
  -23, -13
> CCC(=O)N[C@H]1CC[C@@H](CC(=O)NCC2CC2)O[C@@H]1CO
  20, 13

(continued)
Screens in order: Vaccinia stage, Vaccinia stage Venus
> COc1ccc(S(=O)(=O)N(C)C[C@@H]2Oc3ccc(NS(=O)(=O)c4ccc(F)cc4)cc3CC(=O)N([C@@H](C)CO)C[C@@H]2C)cc1
  2, -2
> CCCNC(=O)N1C[C@H]2[C@@H](c3ccccc31)[C@H](CO)N2C(=O)Nc1ccccc1
  7, 1
> C[C@H]1CCCCO[C@H](CN(C)S(C)(=O)=O)[C@@H](C)CN([C@@H](C)CO)C(=O)c2cc(NS(=O)(=O)c3cn(C)cn3)ccc2O1
  6, 9
> CCNC(=O)C[C@@H]1CC[C@@H]2[C@@H](COc3ccc(NC(=O)Nc4ccc(F)cc4)cc3C(=O)N2C)O1
  12, 10
> CC=Cc1ccc2n(c1=O)C[C@@H]1[C@@H](CO)[C@H](C(=O)NCc3cccc(OC)c3)N[C@H]21 (mixture of isomers)
  3, 13
> CCC(=O)N1[C@@H]2c3ccc(-c4ccccc4F)c(=O)n3C[C@@H]2[C@@H](CO)[C@@H]1C(=O)NCCCN(C)C
  22, 5
> O=C(C[C@H]1CC[C@@H]2[C@H](COC[C@H](O)CN2Cc2ccc(C(F)(F)F)cc2)O1)N1CCc2ccccc2C1
  ?, nt
> CO[C@@H]1CN(C)C(=O)c2ccc(NC(=O)Nc3c(C)noc3C)cc2OC[C@@H](C)N(C)C[C@H]1C
  13, 6
> O=C(NC1CCCCC1)N1CC(=O)N2[C@H](C1)[C@H](c1ccc(-c3cccnc3)cc1)[C@@H]2CO
  -7, -8
> COc1ccc(C(=O)Nc2ccc3c(c2)OC[C@H](C)N(C(C)=O)C[C@H](C)[C@@H](OC)CN(C)C3=O)cc1
  6, -4
> COc1cccc(-c2ccc([C@H]3[C@@H](CO)N4CCCCN(C(=O)Cc5ccncc5)C[C@H]34)cc2)c1
  5, 2
> C[C@H](CO)N1C[C@H](C)[C@@H](CN(C)S(=O)(=O)c2cccc(F)c2)Oc2ncc(C#CC3(O)CCCC3)cc2C1=O
  -9, -14
> C/C=C/c1ccccc1[C@@H]1[C@@H](CO)N(C(=O)CN2CCOCC2)[C@H]1C#N
  15, 13
> O=C(NC1CCC1)[C@H]1[C@H](CO)[C@H]2Cn3c(ccc(-c4ccccc4)c3=O)[C@H]2N1Cc1ccccn1
  12, 6
> C[C@H]1CN([C@@H](C)CO)S(=O)(=O)c2ccc(-c3cccc(C#N)c3)cc2O[C@@H]1CN(C)C(=O)c1ccncc1
  -3, -19
> CCS(=O)(=O)N1CCCCN2[C@H](C1)[C@H](c1ccc(-c3ccccc3C)cc1)[C@@H]2CO
  -5, -12
> C[C@@H]1CN([C@@H](C)CO)C(=O)c2cc(NS(=O)(=O)c3ccc(Cl)cc3)ccc2O[C@H]1CN(C)Cc1ccc(C(=O)Nc2ccccc2N)cc1
  5, 3
> Cc1ccc(S(=O)(=O)N(C)C[C@@H]2Oc3cc(Br)ccc3S(=O)(=O)N([C@@H](C)CO)C[C@H]2C)cc1
  ?, nt
> C[C@H](CO)N1C[C@H](C)[C@H](CN(C)C(=O)Cc2cccnc2)Oc2cc(C3=CCCCC3)ccc2S1(=O)=O
  -1, -8
> Cc1noc(C)c1NC(=O)N(C)C[C@@H]1OCCCC[C@H](C)Oc2ccc(NC(=O)C3CCCCC3)cc2C(=O)N([C@@H](C)CO)C[C@H]1C
  18, 11

Next entries
Screens in order: Vaccinia stage, Vaccinia stage Venus
> C[C@@H]1CN([C@H](C)CO)C(=O)c2cccc(NC(=O)C3CCCCC3)c2O[C@H]1CN(C)Cc1ccc(C(=O)Nc2ccccc2N)cc1
  5, 0
> CCC(=O)N1CC2(C1)CN(S(C)(=O)=O)[C@@H](CO)c1c2c2ccc(OC)cc2n1C
  6, 9
> CN1CCN(C(=O)C[C@@H]2CC[C@H]3[C@H](COc4ccc(NC(=O)c5ccc(F)c(F)c5)cc4C(=O)N3C)O2)CC1
  9, 9
> CC(C)NC(=O)N(C)C[C@@H]1OCCCC[C@@H](C)Oc2ccc(NS(=O)(=O)c3ccc(Cl)cc3)cc2C(=O)N([C@H](C)CO)C[C@@H]1C
  26, 16
> CCCNC(=O)C[C@H]1CC[C@@H]2[C@H](COC[C@@H](O)CN2C(=O)Nc2ccccc2OC)O1
  1, -1
> CC(=O)N1CC2(C1)[C@@H](c1ccccc1)[C@@H](CO)N2Cc1cccc(Cl)c1
  -3, -5
> CCC(=O)N1CC2(C1)[C@H](c1ccc(-c3ccccc3C)cc1)[C@H](CO)N2C(C)=O
  21, 13
> C[C@@H]1CN([C@H](C)CO)C(=O)c2cc(NC(=O)Nc3ccccc3)ccc2O[C@H]1CN(C)C(=O)Nc1ccc(F)cc1
  19, 7
> C[C@H](CO)N1C[C@H](C)[C@H](CN(C)C(=O)Nc2ccc(C(F)(F)F)cc2)Oc2ccc(NC(=O)C3CCCCC3)cc2C1=O
  -24, -12
> C[C@H]1CN([C@@H](C)CO)C(=O)CCCn2cc(nn2)CO[C@@H]1CN(C)C(=O)Oc1ccc2ccccc2c1
  -5, -2
> Cc1noc(C)c1NC(=O)N(C)C[C@H]1Oc2ccc(NC(=O)Nc3ccc(C(F)(F)F)cc3)cc2C(=O)N([C@@H](C)CO)C[C@H]1C
  -7, 8
> O=C(C[C@H]1C=C[C@H](NC(=O)C2CCC2)[C@@H](CO)O1)NC1CCCCC1
  21, 11
> CCC(=O)N[C@@H]1CC[C@@H](CC(=O)NCc2cc(F)cc(F)c2)O[C@@H]1CO
  11, 18
> O=C(C[C@@H]1C[C@H]2c3cc(NS(=O)(=O)c4ccc(F)cc4)ccc3O[C@H]2[C@@H](CO)O1)N1CCCCC1
  12, 12
> CCN1[C@H](C(=O)OC)[C@@H](CO)[C@@H]2Cn3c(ccc(C4=CCCCC4)c3=O)[C@@H]21
  -8, -3
> O=C(Nc1ccc(F)cc1)N1CCCCN2[C@H](CO)[C@H](c3ccc(C4=CCCCC4)cc3)[C@@H]2C1
  -13, -19
> O=C(NCC[C@H]1CC[C@H](NC(=O)C2CCCC2)[C@@H](CO)O1)Nc1ccc(Cl)cc1
  -13, -12

Entries of single compounds, quoted from the list. Values in the order: Vaccinia stage, Vaccinia stage Venus
`Cc1noc(C)c1NC(=O)N(C)C[C@H]1Oc2ccc(NC(=O)Nc3ccc(C(F)(F)F)cc3)cc2C(=O)N([C@@H](C)CO)C[C@H]1C` reads -7, 8
`CCCNC(=O)C[C@H]1CC[C@@H]2[C@H](COC[C@@H](O)CN2C(=O)Nc2ccccc2OC)O1` reads 1, -1
`CN1CCN(C(=O)C[C@@H]2CC[C@H]3[C@H](COc4ccc(NC(=O)c5ccc(F)c(F)c5)cc4C(=O)N3C)O2)CC1` reads 9, 9
`O=C(NCC[C@H]1CC[C@H](NC(=O)C2CCCC2)[C@@H](CO)O1)Nc1ccc(Cl)cc1` reads -13, -12
`CC(=O)N1CC2(C1)[C@@H](c1ccccc1)[C@@H](CO)N2Cc1cccc(Cl)c1` reads -3, -5
